Screens (PubChem)
FGF22 binding: FGF22 (human) thermal shift binding | Q9HCT0 | calls only at 9.99 µM | AID 651658 | 340,000 tested, 1.5% active | recombinant FGF22 thermal shift, SYPRO orange fluorescence; percent of sucrose octasulfate shift, DMSO zero;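 active means melting point raised past a set limit in the mean and every replicate; three in four hits are not shown here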
E coli growth: E. coli growth inhibition | 330,000 tested, 0.21% active | AID 1053175 | Escherichia coli growth, OD600, 23 h; hits give low values | OD600 absorbance (test concentration not listed);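 active means OD600 absorbance below the run mean of sample wells minus 3.6 SD, in any replicate, cut at about 0.56 in these data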;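 further: stock transfer was 300 nL into about 60 µL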
UCH37 inh: blocks the human deubiquitinase UCH37; 330,000 tested, 0.33% active; Q9Y5K5; inhibition, % (concentration not given with the values); purified proteasome/UCH37, Ub-AMC cleavage fluorescence;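 active means mean of two replicates above 20%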;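 further: 0% = compound-free wells with enzyme and 100% = wells lacking proteasome; stock transfer was 100 nL into about 20 µL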
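Material: Human UCH37 enzyme supplied as purified proteasome complex | Schedule: 30 min compound-proteasome preincubation then 25 min substrate reaction, room temperature | Detection: AMC fluorescence from Ub-AMC cleavage, excitation 355 nm, emission 460 nm | Benchmarks: Wells without proteasome as full block, compound-free enzyme plus substrate as uninhibited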
B2AR ag: human beta-2 adrenergic receptor agonism by FAP. Am2.2-beta2AR cells, FAP receptor internalization, flow cytometry; reference of the scale not given here. response, % (concentration not given with the values). 340,000 tested, 0.43% active;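 active means response above a set limit, near 3 SD of response in nonfluorescent compounds, cut at about 42% in these data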;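 further: stock transfer was 100 nL into about 11 µL; a reference agonist was the positive control; negative values mostly stem from fluorescent compounds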
LANA-H2A inh: blocks KSHV LANA binding to histone H2A/H2B; cell-free LANA-H2A/H2B peptide, fluorescence polarization; 320,000 tested, 0.6% active; Q9QR71; inhibition, % (concentration not given with the values); AID 2629; in the data active means inhibition mostly above about 10%, no sharp cut-off; inactive means mostly below about 6.7%;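 further: stock transfer was 7.5 nL into about 10 µL; 0% = median of vehicle wells and 100% = median of positive control wells; one replicate is shown; the record names a cut of 25% in any replicate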
Target sequence (Q9QR71 whole entry, looked up): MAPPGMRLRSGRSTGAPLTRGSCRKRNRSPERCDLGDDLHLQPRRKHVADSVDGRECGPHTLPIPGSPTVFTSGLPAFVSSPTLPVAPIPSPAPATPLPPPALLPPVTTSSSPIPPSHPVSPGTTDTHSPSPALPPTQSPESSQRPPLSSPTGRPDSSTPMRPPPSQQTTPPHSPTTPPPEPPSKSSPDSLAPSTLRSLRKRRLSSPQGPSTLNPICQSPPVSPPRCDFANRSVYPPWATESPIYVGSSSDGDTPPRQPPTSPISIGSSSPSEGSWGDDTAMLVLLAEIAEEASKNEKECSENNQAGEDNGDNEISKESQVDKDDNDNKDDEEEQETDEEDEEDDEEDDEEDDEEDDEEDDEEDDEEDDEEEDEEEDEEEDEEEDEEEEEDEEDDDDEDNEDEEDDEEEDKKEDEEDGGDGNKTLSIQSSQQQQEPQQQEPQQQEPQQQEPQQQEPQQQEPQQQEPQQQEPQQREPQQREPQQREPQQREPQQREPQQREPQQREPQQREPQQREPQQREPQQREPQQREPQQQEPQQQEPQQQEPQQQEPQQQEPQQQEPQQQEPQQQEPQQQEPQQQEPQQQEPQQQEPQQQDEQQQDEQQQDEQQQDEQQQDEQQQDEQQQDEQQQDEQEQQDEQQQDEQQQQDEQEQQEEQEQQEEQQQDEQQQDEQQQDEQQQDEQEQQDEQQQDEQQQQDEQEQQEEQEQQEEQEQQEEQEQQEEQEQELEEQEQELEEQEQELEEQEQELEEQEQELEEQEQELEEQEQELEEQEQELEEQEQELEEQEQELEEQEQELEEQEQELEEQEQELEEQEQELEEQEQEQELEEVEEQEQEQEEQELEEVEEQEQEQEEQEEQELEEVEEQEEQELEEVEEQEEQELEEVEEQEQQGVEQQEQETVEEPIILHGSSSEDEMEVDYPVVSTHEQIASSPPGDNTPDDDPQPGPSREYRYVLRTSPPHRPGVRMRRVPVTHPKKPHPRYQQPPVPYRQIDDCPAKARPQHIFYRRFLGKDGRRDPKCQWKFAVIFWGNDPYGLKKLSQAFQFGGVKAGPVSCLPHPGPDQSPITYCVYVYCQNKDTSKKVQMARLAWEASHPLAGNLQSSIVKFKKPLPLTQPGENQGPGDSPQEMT
ALR inh: inhibitors of human sulfhydryl oxidase ALR | inhibition, % (test concentration not listed) | AID 485317 | P55789 | purified ALR, DTT oxidation, H2O2 HRP-luminol luminescence | 290,000 tested, 3.8% active;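 active means mean and each replicate at 75% or more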;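 further: stock transfer was 7.5 nL into about 7.5 µL; 0% = neutral wells and 100% = wells with inactivated enzyme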
HNF4A DNA FP: change in binding of human HNF4 alpha to DNA; 360,000 tested, 0.3% active; HNF4a-FITC DNA binding, fluorescence polarization, 1 h; AID 1224865; activity change, % at 10 µM; P41235; in the data active means activity change above about 30%, passing the limit was not always enough;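 further: controls were the assay level and a saturating level of protein; the project sought stronger binding though the title names inhibitors; some compounds called inactive have numbers as strong as hits; positive values seem to mean higher polarization but the record does not say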
The depositor's hits bear a star; i = inactive; . = not tested or not shown.

The line under a structure holds: FGF22 binding	E coli growth	UCH37 inh	B2AR ag	LANA-H2A inh	ALR inh	HNF4A DNA FP
O=C(N1CCOCC1)N1CCN(S(=O)(=O)c2ccc(Cl)cc2)C1
 : i	0.69	4.3	-2	-2.0	.	4.7
O=C(O)/C=C(\Oc1ccccc1)C1(O)CCCCC1
 : i	0.65	3.4	1	-32	0	1.2
Cc1ccccc1NC(=O)C1CCN(C(=O)NC2CCCCC2)CC1
 : i	0.7	4.0	2	1.9	-1	1.0
COC(=O)c1ccc(Nc2ncnc3c2cnn3-c2cccc(C)c2)cc1
 : i	0.76	-39	7	-3.3	-6	-4.0
CCCCn1c(N)c(N(CCOC)C(=O)CCNC(=O)c2ccccc2Cl)c(=O)[nH]c1=O
 : i	0.71	1.0	-5	0.3	29	0.5
O=C(CN1C(=O)c2ccccc2C1=O)Nc1nc(-c2cccc([N+](=O)[O-])c2)cs1
 : i	0.68	2.7	.	-1.4	-3	.
O=S(=O)(c1ccccc1F)N1CCN(CCc2ccccc2)CC1
 : i	0.64	4.3	5	-1.2	.	-0.4
COc1cccc(OC)c1C(=O)Nc1cc(Cl)ccc1N1CCOCC1
 : .	0.71	1.9	1	3.7	-9	-2.9
Cn1cnc([N+](=O)[O-])c1SCC(O)CN1CCCCC1 (stereo unspecified)
 : i	0.68	8.3	2	3.1	-2	-3.0
O=C(CSc1nc2c([nH]c3ccccc32)c(=O)n1-c1ccccc1)N1CCOCC1
 : i	0.73	3.5	2	-2.1	-5	-2.9
CCOCCCNc1nc2c(c(=O)n(C)c(=O)n2C)n1CCCc1ccccc1
 : .	0.71	3.0	-11	-3.2	19	0.8
Cc1cc(C)c(NC(=O)CSCc2c(C)noc2C)c(C)c1
 : i	0.69	2.3	3	-0.2	0	2.8
CSCCC(NS(=O)(=O)c1ccc2c(c1)c(=O)n(C)c(=O)n2C)C(=O)NC1CCN(Cc2ccccc2)CC1 (stereo unspecified)
 : i	0.69	3.0	-7	-0.9	.	-0.5
CCN(C(=O)CN1CCN(C)CC1)c1c(N)n(Cc2ccccc2)c(=O)[nH]c1=O
 : i	0.7	3.2	-10	-4.1	1	-3.8
CC1=CC(C)(C)N(S(=O)(=O)c2ccc(C)cc2)c2cc(C)ccc21
 : .	0.7	6.4	29	-4.7	-8	2.7
O=C(c1cc(COc2cccc(C(F)(F)F)c2)on1)N1CCc2ccccc2C1
 : i	0.64	-0.1	0	-5.6	-10	1.2
O=C(O)c1ccc(C(=O)O)c(C(=O)c2ccc(NC(=O)c3ccccc3)cc2)c1
 : i	0.65	5.0	-1	-4.2	-2	-2.3
CCOc1cccc(NC(=O)C2CC(=O)N(C)C2)c1 (stereo unspecified)
 : i	0.67	-1.4	10	-2.0	1	-0.8
CC1C2Cn3c(nc4ccccc43)C1N(C(C)C)O2 (stereo unspecified)
 : i	0.67	-0.4	6	-5.6	-3	0.7
CC(C)Cn1c(=O)c(C(=O)Nc2ccncc2)c(O)c2ccccc21
 : i	0.68	-15	2	1.9	-61	-52
C[C@H](CCC(=O)O)[C@H]1CC[C@H]2[C@@H]3CC[C@@H]4C[C@H](O)CC[C@]4(C)[C@H]3CC[C@]12C
 : i	0.77	4.7	16	-16	-1	-4.8
COc1ccc(-c2cc(=O)c3c(O)c(OC)c(O)cc3o2)cc1
 : i	0.75	6.9	-7	-3.0	-12	-2.3
O=C(O)c1ccccc1CSc1ccccn1
 : i	0.65	0.5	2	-5.1	-5	3.4
CC1=C(C)CC2C(=O)N(Cc3ccccc3)C(=O)C2C1 (stereo unspecified)
 : .	0.64	1.4	-2	2.0	-4	-2.3
Cc1onc(-c2ccccc2)c1C(=O)Nc1ccc(NC(=O)c2c(-c3ccccc3)noc2C)cc1
 : i	0.67	1.7	1	-2.1	3	6.1
Cc1ccc(C2=NNC(=O)C(c3c[nH]c4ccccc34)C2)cc1 (stereo unspecified)
 : .	0.64	-1.2	-4	-0.9	1	1.0
C[C@@H]1C(c2ccc(F)cc2)=NN(c2ccccc2)[C@H]1C(=O)N1CCOC1=O
 : i	0.67	-50	5	.	.	-3.7
CCOc1ccc(-c2nnc(NC(=O)Cc3cc(OC)c(OC)c(OC)c3)o2)cc1
 : i	0.69	-3.0	0	-1.5	-4	5.3
CCCCN(Cc1cc2ccccc2[nH]c1=O)S(=O)(=O)c1ccc(C)cc1
 : i	0.72	0.3	-15	-4.6	-4	2.7
CCOC(=O)NC(NCc1ccccc1)(C(F)(F)F)C(F)(F)F
 : i	0.72	3.3	6	-0.2	3	-0.6
CC(C)(C)c1cc2cccnc2n1Cc1ccccc1
 : .	0.71	-3.4	-6	1.0	-5	2.9
Cc1nnsc1C(=O)Nc1ccccc1Cl
 : .	0.68	0.5	-8	-2.8	-2	-2.0
CN(C)c1ccc(S(=O)(=O)N2CCCCC2)cc1NC(=O)COc1ccccc1F
 : i	0.67	0.6	-16	-6.6	-7	-2.9
O=C(COc1ccc(-n2cnnn2)cc1)NCCc1ccc(F)cc1
 : .	0.72	-1.3	-2	2.5	-16	-7.1
Cc1ccc(CC(=O)c2ccc(Cl)cc2)cc1
 : i	0.64	0.4	10	1.7	29	-2.0
FC(F)Oc1ccccc1NC(=S)NCc1ccco1
 : .	0.71	2.0	2	0.1	-15	-2.0
Cn1ccnc1SCC(=O)Nc1cccc([N+](=O)[O-])c1
 : i	0.69	2.4	-2	1.0	-7	-0.8
Cc1cc(N2CCCC2)ccc1/C=C1/C(=O)N(C)C(=S)N1C
 : i	.	.	-48	1.0	-18	22
Cc1ccc(-c2ccc(C)c(N)c2C)c(C)c1N
 : i	0.69	3.8	0	-2.6	83*	-1.7
O=C(Nc1cccs1)Nc1ccc(F)cc1F
 : .	0.61	-1.8	-3	4.7	10	-0.5
Cc1ccc2[nH]c(=O)cc(C(=O)OCC(=O)c3ccccc3)c2c1
 : .	0.71	-16	-10	-1.6	-6	6.2
C(=N\Nc1nncn1/N=C/c1ccco1)/c1ccco1
 : i	.	.	11	-8.5	.	-4.9
O=C(COC(=O)c1ccc(F)cc1)Nc1ccccc1N1CCOCC1
 : .	0.77	4.7	6	-0.3	-1	0.8
CCn1c(SCC(=O)c2ccc(C)cc2)nnc1-c1ccncc1
 : .	0.67	1.6	-1	1.7	28	0.1
Cc1ccc2cc(C#N)c(SCC(=O)N3CCCc4ccccc43)nc2c1C
 : i	0.68	-1.2	-11	-2.7	0	2.2
Cc1ccc(C2=NN3C(C2)c2ccccc2OC32C(=O)Nc3ccccc32)cc1 (stereo unspecified)
 : .	0.69	.	3	3.4	1	8.1
CCOc1ccc2nc(NC(=O)CCn3cccc3)sc2c1
 : i	0.71	-1.6	6	0.1	-56	-0.9
CCc1ccc(NC(=O)CCS(=O)(=O)c2ccc(Br)cc2)cc1
 : i	0.67	1.2	-8	4.7	-3	-6.9
C/C(=N\NC(=O)c1ccc(NS(=O)(=O)c2cccs2)cc1)c1ccc2c(c1)OCO2
 : i	.	.	2	0.5	.	-4.7
COCCn1c(SCC(=O)c2ccc3c(c2)OCCO3)nnc1-c1ccco1
 : .	0.67	3.8	0	2.8	61	-2.0
COc1cccc(-c2ocnc2C(=O)Nc2ccc3c(c2)CCC3)c1
 : i	0.71	-7.7	0	1.3	.	0.5
COc1ccc(NC(=O)CN2C(=O)NC3(CCCCC3C)C2=O)cc1OC (stereo unspecified)
 : i	0.68	0.9	0	1.1	.	1.8
CC1CCN(C(=O)c2[nH]cnc2C(=O)N[C@@H](C)C(=O)OC(C)(C)C)CC1
 : i	.	0.1	-4	-4.3	-6	5.4
CSc1nc(-c2ccccc2)cn1-c1ccc(NC(C)=O)cc1
 : i	.	.	-14	37*	-2	1.1
O=C(Cc1ccc(NC(=O)C2CCCN(C(=O)C3CC3)C2)cc1)Nc1cccc(C(=O)N2CCCCC2)c1 (stereo unspecified)
 : i	0.68	1.9	-6	.	.	-0.2
CCCCNC(=O)c1onc(CSc2ccc(F)cc2)c1C(=O)NCCCC
 : i	0.66	2.8	-3	5.4	0	-1.7
CCOC(=O)N1CCc2c(sc3[nH]c(=S)[nH]c(=S)c23)C1
 : .	0.64	8.7	.	-2.3	27	.
CCN(C[C@H]1N[C@@](Cc2ccccc2)(C(=O)OC)[C@H]2C(=O)N(Cc3ccccc3)C(=O)[C@@H]12)C(=O)c1ccc(F)cc1
 : i	0.71	2.0	8	.	.	0.1
Cc1ccc(CC2S/C(=C(/C#N)C(=O)NCc3ccco3)N(c3ccccc3)C2=O)cc1 (stereo unspecified)
 : .	0.7	5.8	-2	1.2	14	-1.9
COc1ccccc1N1CCN(CC(=O)Nc2nc(C)c(C(=O)N(C)C)s2)CC1
 : i	0.66	-0.8	-6	-0.9	6	-3.5

Looked up above.
Under LANA-H2A inh, `FC(F)Oc1ccccc1NC(=S)NCc1ccco1` is entered as 0.1
Under ALR inh, `Cc1cc(N2CCCC2)ccc1/C=C1/C(=O)N(C)C(=S)N1C` is entered as -18

(next part)
The line under a structure holds: FGF22 binding	E coli growth	UCH37 inh	B2AR ag	LANA-H2A inh	ALR inh	HNF4A DNA FP
COC(=O)C1CCN(CC(=O)Nc2ccc3c(c2)OCCO3)CC1
 : i	0.66	1.4	7	-0.1	-1	-1.9
O=C(Nc1ccc2nc(-c3ccc(Br)o3)[nH]c2c1)c1cccs1
 : .	0.66	-6.5	-5	0.4	1	-0.7
COc1ccc(F)cc1S(=O)(=O)NC1CCCCCC1
 : .	0.73	4.1	-2	-5.5	0	0.2
COc1ccccc1CC(=O)Nc1ccc2c(c1)C(=O)NC2=O
 : i	0.66	-1.8	2	-0.1	0	0.2
O=S(=O)(c1ccc2nc(Nc3ccccc3)ccc2c1)N1CCCCC1
 : i	0.68	-103	14	-1.8	-3	4.6
Cc1onc(-c2ccccc2)c1C(=O)N1CCN(C(=O)c2ccco2)CC1
 : .	0.69	-0.1	-11	-0.5	-1	1.9
COc1ccc(Cn2c(SC)nc3ccccc32)cc1[N+](=O)[O-]
 : .	0.72	2.9	-2	-1.1	-3	3.0
CS(=O)(=O)N(CC(=O)N1CCCC1)c1ccc(Cl)cc1
 : i	0.68	1.1	5	2.1	3	2.8
COc1ccc(N2CCN(CCNC(=O)Nc3ccc([N+](=O)[O-])cc3OC)CC2)cc1
 : i	0.66	4.6	0	1.9	89*	2.0
CCOc1c(Br)cc(C2CC(=O)Nc3cc(OC)c(OC)cc32)cc1OC (stereo unspecified)
 : i	0.66	1.2	-11	-2.6	-5	-1.8
O=C(Cc1cccs1)NCc1ccncc1
 : i	0.66	5.1	1	-8.6	-8	0.0
COCCCNC(=S)Nc1ccc2nc3n(c(=O)c2c1)CCCCC3
 : i	0.65	2.9	-7	-6.1	-1	-0.1
COc1ccc(Cl)cc1NC(=O)N1CCC(C)CC1
 : i	0.68	5.5	-14	-9.4	-4	4.3
CCCn1c(=O)c2ccccc2n2c(SCCOc3ccccc3)nnc12
 : i	0.69	-0.8	-12	-2.8	-17	-2.0
O=c1c(C/C=C/c2ccccc2)c(O)ccn1CCc1c[nH]c2ccccc12
 : i	0.67	0.0	-1	1.6	-3	-2.7
O=C(O)C1=CC[C@@H](c2ccc(Cl)cc2)N(S(=O)(=O)c2ccc(Cl)cc2)[C@H]1c1ccc(Br)cc1
 : .	0.66	2.2	6	.	.	-4.2
COc1ccc(NC(=O)[C@H](C)NC(=O)C2CCN(S(=O)(=O)c3ccc(C)cc3)CC2)cc1OC
 : i	0.64	-0.8	-6	-1.2	-9	0.3
CC(=O)c1ccc(Sc2ccccc2)cc1
 : .	0.68	2.8	-13	7.3	-13	-1.5
CC1CCN(C(=O)Cn2c(=O)n(CCCC(=O)NCc3ccco3)c(=O)c3sccc32)CC1
 : .	0.67	1.6	-3	-2.1	.	1.1
Cc1ccc(OCC(=O)NCC(=O)Nc2ccc(F)c(F)c2F)c([N+](=O)[O-])n1
 : i	0.67	2.8	-19	-9.6	-13	-0.5

This is a subset. The share of hits here may be higher or lower than overall.
